LANA-H2A inh = blockers of LANA interaction with H2A/H2B – biochemical, FP readout, HTS, primary screen. cell-free LANA-H2A/H2B peptide, fluorescence polarization. 320,000 tested, 0.6% active. inhibition, % (test concentration not listed); in the data active = inhibition mostly above about 10%, no sharp cut-off; inactive = mostly below about 6.7%;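 note: stock transfer was 7.5 nL into about 10 µL; 0% = median of vehicle wells and 100% = median of positive control wells; one replicate is shown; the record names a cut of 25% in any replicate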
Beta cell apopt = inhibitors of cytokine-induced beta cell apoptosis, primary screen, luminescence | INS-1E cytokine-induced death, ATP luminescence, 48 h; percent of positive-control rescue, neutral wells zero | protection from apoptosis, % (no concentration beside the values) | 300,000 tested, 0.8% active | AID 435005, 2010;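 active = all replicates at 75% or more, or half of them and the mean; inconclusive = half reach 75% but not the mean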;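 note: 0% = cytokine-treated negative control wells and 100% = positive control rescue; higher means more ATP so stronger rescue from cytokine killing; wells of about 40 µL received 100 nL stock; the first replicate is given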
MLL AF4-AF9 inh = inhibitors of AF4 peptide binding to AF9, primary screen, biochemical, AlphaScreen, biotin-AF4 peptide, FLAG-AF9, single point; inhibition, % at 10 µM; 350,000 tested, 0.47% active;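 active = every replicate reaching a set inhibition limit, whatever the replicate mean, cut at about 25% in these data; inconclusive = mean inhibition reaches that limit but some replicates miss it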;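 note: 0% = plate neutral control median and 100% = total signal loss; the record names both 10 and 1 µM as test concentration; the first replicate is given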
Target sequence (P42568 whole entry, looked up): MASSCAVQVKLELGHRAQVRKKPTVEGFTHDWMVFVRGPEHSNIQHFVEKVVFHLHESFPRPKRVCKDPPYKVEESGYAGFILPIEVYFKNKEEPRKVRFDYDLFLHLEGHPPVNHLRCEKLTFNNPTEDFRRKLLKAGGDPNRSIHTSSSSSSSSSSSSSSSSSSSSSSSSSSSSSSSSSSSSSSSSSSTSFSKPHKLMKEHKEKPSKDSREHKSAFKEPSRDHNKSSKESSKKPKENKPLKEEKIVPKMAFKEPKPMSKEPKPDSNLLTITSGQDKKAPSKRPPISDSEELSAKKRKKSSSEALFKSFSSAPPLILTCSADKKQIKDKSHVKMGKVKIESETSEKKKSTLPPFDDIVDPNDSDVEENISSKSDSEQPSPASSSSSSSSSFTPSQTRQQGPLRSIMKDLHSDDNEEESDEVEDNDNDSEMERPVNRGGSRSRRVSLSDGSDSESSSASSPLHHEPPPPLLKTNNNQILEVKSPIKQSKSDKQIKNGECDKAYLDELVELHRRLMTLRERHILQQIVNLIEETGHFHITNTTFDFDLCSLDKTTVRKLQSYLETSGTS
Vif A3G = inhibitors of Vif binding to APOBEC3G peptide, primary screen, biochemical, TR-FRET, GST-Vif 1-94, biotin-A3G peptide, dose response retest (AID 1117319); Virion infectivity factor (Human immunodeficiency virus type 1 group M subtype B (isolate …; TR-FRET GST-Vif / biotin-A3G peptide binding; higher % means a stronger effect; test concentration not given here; strong numbers were not always called active; inhibition, %, or IC50 in µM where a hit was titrated; 260,000 tested, 0.57% active;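 active = above the screen mean plus three standard deviations and confirmed in dose response; inconclusive = results disagree or hit not tested in dose response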;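 note: Vif residues 1-94 fused to GST binding biotinylated APOBEC3G peptide 110-148; 0% = full assay without inhibitor and 100% = GST in place of GST-Vif; retest series ran down from 100 µM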
RanGTP-Imp inh = inhibitors of RanGTP-importin-beta interaction, primary screen, biochemical, FRET, CFP-Ran, YFP-importin-beta, homogeneous | Ran GTPase (GTP-bound) - importin-beta complex | cell-free CFP-Ran/YFP-importin-beta FRET ratio | inhibition, % (concentration not given with the values) | 300,000 tested, 1.1% active | AID 2216, 2009;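 active = most replicates above 15%; inconclusive = exactly half above 15%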;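 note: 0% = DMSO wells and 100% = Ran loaded with GDP instead of GTP; wells of about 40 µL received 100 nL stock; the first replicate is given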
Calb FLC = C. albicans growth inhibition with fluconazole, primary screen, CaCi-2 strain, Alamar Blue fluorescence; growth inhibition, % (test concentration not listed); 300,000 tested, 0.57% active; C. albicans CaCi-2 (fluconazole-resistant clinical isolate) + fluconazole, 48 h;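 active = most replicates above 75%; inconclusive = exactly half above 75%; inactive = most below 75%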;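 note: all wells also contain fluconazole at 8 µg/ml as a sub-toxic cotreatment; 0% = median of DMSO wells and 100% = median of geldanamycin control wells; wells of about 8 µL received 7.5 nL stock; the first replicate is given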
A1 inh = caspase 3/7 activation in MEF A1-2A-BIM cells, primary screen, A1 inhibitor project, cell-based, luminescence, HTS. Caspase-Glo 3/7 luminescence, 3 h; percent of clofoctol response, vehicle zero. caspase activation, % (test concentration not listed). 330,000 tested, 0.066% active. AID 2462, 2010;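 active = over half of replicate activation scores above 10%, or exactly half above 10 with the replicate mean above 10; inconclusive = replicate mean below 10 yet half the replicates above 10; inactive = over half of replicates below 10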;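 note: wells of about 30 µL received 50 nL stock; many hits fall short of the cut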
T cruzi inh = inhibitors of intracellular T. cruzi growth, primary screen, luminescence, NIH3T3 host cells | T. cruzi beta-gal in NIH3T3, 90 h | inhibition, % (concentration not given with the values) | 300,000 tested, 1.4% active | AID 1885, 2009;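 active = mean inhibition across valid replicates above about 55%, limit read from the data; inconclusive = mean below that limit but half or more replicates reach it; inactive = mean below it, under half of replicates reach it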;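 note: signal also drops with host cell toxicity which is not excluded here; 0% = plate median of DMSO wells and 100% = zero luminescence signal; higher percent means less beta-gal luminescence so fewer parasites; stock transfer was 50 nL into about 50 µL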
The depositor's hits bear a star; & = joins results of further samples.

Screening Cc1[nH]c2ccccc2c1C(=O)COC(=O)Cn1cnc2ccccc21 returned LANA-H2A inh -3.3, Beta cell apopt 0, MLL AF4-AF9 inh 3.1, Vif A3G 14%, RanGTP-Imp inh -2.7, Calb FLC -34, A1 inh -0.1 and T cruzi inh -21.
COc1cccc(C2CC(c3ccccc3Cl)Nc3nc(N)nn32)c1 (stereo not drawn) was read as LANA-H2A inh -2.4, Beta cell apopt -8, Vif A3G 6%&30%, RanGTP-Imp inh -1.3, Calb FLC -15, A1 inh 0.7 and T cruzi inh 21.
Screening COCCN=c1scc(C)n1/N=C/C1CC2C=CC1C2 (stereo not drawn) returned LANA-H2A inh 0.5, Beta cell apopt 1, MLL AF4-AF9 inh 4.0, Vif A3G 0%, RanGTP-Imp inh 3.0, Calb FLC -10, A1 inh -0.2 and T cruzi inh 7.
`O=C(NC1(C(F)(F)F)N=C(c2ccccc2)NC1=O)c1ccc(Cl)cc1Cl` (stereo not drawn) gave LANA-H2A inh 3.5, Beta cell apopt -2, Vif A3G -7%, RanGTP-Imp inh 9.4, Calb FLC 25, A1 inh -0.2 and T cruzi inh -24.
O=C(/C=C/c1cccc([N+](=O)[O-])c1)Nc1ccccc1N1CCOCC1 was read as LANA-H2A inh -1.8, Beta cell apopt 2, MLL AF4-AF9 inh 5.1, RanGTP-Imp inh 3.1, Calb FLC 2, A1 inh 0.8 and T cruzi inh -7.
`CCOC(=O)c1ccc(NS(=O)(=O)c2c(N)[nH]c(=O)[nH]c2=O)cc1` gave LANA-H2A inh 3.6, Beta cell apopt 0, MLL AF4-AF9 inh 0.5, RanGTP-Imp inh 5.7, Calb FLC -3, A1 inh 0.2 and T cruzi inh 0.
Screening CC(C)Oc1ccc(C(=O)NC2(C(F)(F)F)N=C3SCCN3C2=O)cc1 (stereo not drawn) returned LANA-H2A inh -4.0, Vif A3G -2%, RanGTP-Imp inh 0.0, Calb FLC -6, A1 inh 2.1 and T cruzi inh 3.
`c1coc(-c2nnc3sc(Cc4cccs4)nn23)c1` gave LANA-H2A inh -7.4, Beta cell apopt -7, Vif A3G inconclusive, RanGTP-Imp inh 9.0, Calb FLC 15, A1 inh -0.4 and T cruzi inh -3.
For CC(C)n1nnnc1SCC(=O)N1N=C(c2cccs2)CC1c1cccs1 (stereo not drawn) the results were LANA-H2A inh -4.0, Beta cell apopt -6, MLL AF4-AF9 inh 5.4, Vif A3G -4% and A1 inh -1.1.
CC(C)CCOP(=O)(c1ccc(N(C)C)cc1)C(O)c1ccccc1F (stereo not drawn) was read as LANA-H2A inh 2.9, Beta cell apopt -1, Vif A3G 0%, RanGTP-Imp inh 3.1, Calb FLC 38, A1 inh -0.6 and T cruzi inh 10.

The list goes on, starting with the last two of the part before.
For CC(C)n1nnnc1SCC(=O)N1N=C(c2cccs2)CC1c1cccs1 (stereo not drawn) the results were LANA-H2A inh -4.0, Beta cell apopt -6, MLL AF4-AF9 inh 5.4, Vif A3G -4% and A1 inh -1.1.
CC(C)CCOP(=O)(c1ccc(N(C)C)cc1)C(O)c1ccccc1F (stereo not drawn) was read as LANA-H2A inh 2.9, Beta cell apopt -1, Vif A3G 0%, RanGTP-Imp inh 3.1, Calb FLC 38, A1 inh -0.6 and T cruzi inh 10.
`CNS(=O)(=O)c1cccc(C(=O)NCC(c2ccco2)N(C)C)c1` (stereo not drawn) gave LANA-H2A inh 0.7, Beta cell apopt 0, MLL AF4-AF9 inh -11, RanGTP-Imp inh -5.6, Calb FLC -4, A1 inh -0.4 and T cruzi inh -7.
For COc1ccccc1N(C)S(=O)(=O)c1ccc(C)c(C(=O)NC(C)c2ccccn2)c1 (stereo not drawn) the results were LANA-H2A inh -3.0, Beta cell apopt 3, MLL AF4-AF9 inh -2.9, Vif A3G -7% and A1 inh 1.7.
Screening CCOP(=O)(OCC)C(NC(=O)Nc1ccc(Cl)c(Cl)c1)c1ccccc1 (stereo not drawn) returned LANA-H2A inh 0.1, Beta cell apopt 21, MLL AF4-AF9 inh -7.2, Vif A3G inconclusive, RanGTP-Imp inh 0.6, Calb FLC -1, A1 inh -0.2 and T cruzi inh 0.
`COc1cc(/C=N/NC(=O)CC2(C)OCCO2)cc(Br)c1O` gave LANA-H2A inh -7.2, Beta cell apopt -1, Vif A3G -6%, RanGTP-Imp inh 0.3, Calb FLC inconclusive, A1 inh 0.4 and T cruzi inh -8.
CCOc1ccc(NC(=O)c2ccc3c(=O)n4c(nc3c2)CCCCC4)cc1 was read as LANA-H2A inh 8.3, Beta cell apopt 3, MLL AF4-AF9 inh 0.7, RanGTP-Imp inh 7.3, Calb FLC 18, A1 inh -0.9 and T cruzi inh 18.
For Cc1ccc(-n2nnnc2-c2cnc3ccc(Cl)cc3c2-c2ccccc2)cc1 the results were LANA-H2A inh -0.6, Beta cell apopt 11, Vif A3G -6%, RanGTP-Imp inh -1.0, Calb FLC -9, A1 inh 0.5 and T cruzi inh 1.
Screening Cc1ccccc1-n1nc2c(c1NC(=O)c1ccc3c(c1)OCO3)CS(=O)(=O)C2 returned LANA-H2A inh -5.8, Beta cell apopt -1, MLL AF4-AF9 inh 2.0, RanGTP-Imp inh 2.8, Calb FLC -2, A1 inh -0.1 and T cruzi inh 1.
CNC(=O)c1ccccc1NC(=O)C1CC(=O)N(c2ccc(OC)cc2)C1 (stereo not drawn) was read as LANA-H2A inh -0.1, Beta cell apopt -5, MLL AF4-AF9 inh -2.5, Vif A3G -1%, RanGTP-Imp inh -2.6, Calb FLC -9, A1 inh 1.5 and T cruzi inh -5.
O=C(c1ccco1)N1CCN(Cc2cc(=O)c(OCc3ccc(F)cc3)co2)CC1 was read as LANA-H2A inh 0.4, Beta cell apopt 1, MLL AF4-AF9 inh 1.0, Vif A3G -5%, RanGTP-Imp inh -2.5, Calb FLC 2, A1 inh 1.9 and T cruzi inh 24.
For COc1ccc(NC(=O)C2CC(c3ccccc3Cl)=NO2)cc1 (stereo not drawn) the results were LANA-H2A inh -6.8, Beta cell apopt 3, MLL AF4-AF9 inh -1.1, Vif A3G 14%, RanGTP-Imp inh -0.2, Calb FLC -5, A1 inh 0.0 and T cruzi inh 6.
Screening O=C(O)c1c(-c2ccccc2)nnc2ccccc12 returned LANA-H2A inh -0.2, Beta cell apopt -6, MLL AF4-AF9 inh -7.8, Vif A3G -6%, RanGTP-Imp inh -0.5, Calb FLC -10, A1 inh 0.2 and T cruzi inh 0.
For CCCc1cc(=O)n2[nH]c(NCc3ccccc3Cl)nc2n1 the results were LANA-H2A inh -0.6, Beta cell apopt 2, Vif A3G 16%, RanGTP-Imp inh 3.5, Calb FLC 2, A1 inh 0.6 and T cruzi inh -12.
For O=C(C1CCCO1)N1CCN(S(=O)(=O)c2cc(F)ccc2F)CC1 (stereo not drawn) the results were LANA-H2A inh -3.0, Beta cell apopt 0, MLL AF4-AF9 inh -0.5, RanGTP-Imp inh -3.2, Calb FLC 4, A1 inh -1.1 and T cruzi inh -12.
Screening COCc1cc(C)nc2sc(C(=O)Nc3ccccc3Br)c(N)c12 returned LANA-H2A inh -2.4, Beta cell apopt 3, MLL AF4-AF9 inh -1.6, Vif A3G 6%, RanGTP-Imp inh -2.2, Calb FLC 1, A1 inh -0.2 and T cruzi inh 33.
`COc1ccc(NC(C)=O)cc1NC(=O)CSc1nnc(-c2ccccc2)n1N` gave LANA-H2A inh -5.1, Beta cell apopt -4, MLL AF4-AF9 inh -3.8, Vif A3G 5%, RanGTP-Imp inh -1.1, Calb FLC 0, A1 inh 0.2 and T cruzi inh -7.
`NC(=O)[C@@H]1CCCNc2c(I)cc([N+](=O)[O-])cc2C(=O)N[C@@H](Cc2ccccc2)C(=O)N[C@@H](Cc2cnc[nH]2)C(=O)N1` gave LANA-H2A inh -5.8, Beta cell apopt -1, MLL AF4-AF9 inh 8.5, Vif A3G 10%, RanGTP-Imp inh -2.7, Calb FLC 18, A1 inh 0.5 and T cruzi inh -9.
`Cc1cc(C)[n+](-c2ccc(F)cc2)c2[nH]c(=O)[nH]c(=O)c12` gave LANA-H2A inh -7.4, Beta cell apopt 3, MLL AF4-AF9 inh -58, RanGTP-Imp inh 3.4, Calb FLC -7, A1 inh -1.0 and T cruzi inh -20.
Screening CC(C)Cc1cc(C(=O)N2N=C(C(F)F)CC2(O)C(F)F)c2ccccc2n1 (stereo not drawn) returned LANA-H2A inh -0.3, Beta cell apopt 9, Vif A3G -1%, RanGTP-Imp inh 0.5, Calb FLC 4, A1 inh 0.6 and T cruzi inh 15.
`O=S1(=O)Cc2cc3ccccc3cc2C1` gave LANA-H2A inh 2.2, Beta cell apopt -6, MLL AF4-AF9 inh -3.5, Vif A3G 3%, RanGTP-Imp inh -0.2, Calb FLC 9, A1 inh 0.1 and T cruzi inh -6.
`C=C(C)C1Cc2c(C)nn(-c3cccc4cccnc34)c2C1` (stereo not drawn) gave LANA-H2A inh -1.9, Beta cell apopt -1, MLL AF4-AF9 inh -0.4, Vif A3G 1%, RanGTP-Imp inh inconclusive, Calb FLC 7, A1 inh 0.0 and T cruzi inh -7.
CC(C)[C@H](NC(=O)N1CCn2c1nc1ccccc12)C(=O)N1CCCCC1 was read as LANA-H2A inh 3.4, Beta cell apopt -4, MLL AF4-AF9 inh -0.3, RanGTP-Imp inh 5.8, Calb FLC -4, A1 inh 0.9 and T cruzi inh -2.
Screening O=C(Nc1c2c(nn1-c1ccc(F)cc1)CS(=O)C2)c1ccc(S(=O)(=O)N2CCOCC2)cc1 (stereo not drawn) returned LANA-H2A inh -1.9, Beta cell apopt 2, MLL AF4-AF9 inh -1.6, Vif A3G 3%, RanGTP-Imp inh 1.3, Calb FLC -4, A1 inh -0.4 and T cruzi inh 17.
For Cc1cccc(C(=O)NCCN2CCOCC2)c1[N+](=O)[O-] the results were LANA-H2A inh 0.3, Beta cell apopt -7, Vif A3G 6%, RanGTP-Imp inh 0.6, Calb FLC -6, A1 inh 1.1 and T cruzi inh -18.
C=CC[C@@H](CC(=O)N[C@@H](CO)Cc1ccccc1)C(=O)N[C@H](COC(=O)[C@@H](CC=C)CC(=O)OC(C)(C)C)Cc1c[nH]c2ccccc12 was read as LANA-H2A inh -405, Beta cell apopt -5, MLL AF4-AF9 inh 0.9, Vif A3G 1% and A1 inh -0.7.
`N#CC1(NC(=O)CN2CCc3ccccc3C2)CCCC1` gave LANA-H2A inh -2.0, Beta cell apopt -3, MLL AF4-AF9 inh -1.0, Vif A3G -6%, Calb FLC -7 and A1 inh 0.7.
For COc1ccc2nc(NC(=O)Nc3cccc4ccccc34)sc2c1 the results were LANA-H2A inh -5.2, Beta cell apopt 3, MLL AF4-AF9 inh 4.1, Vif A3G -3%, RanGTP-Imp inh 1.4, Calb FLC 12, A1 inh -0.3 and T cruzi inh 0.

From PubChem BioAssay
